Screens: PubChem BioAssay, National Center for Advancing Translational Sciences (NCATS)
SNCA expr inhib: inhibitors of alpha-synuclein (SNCA) gene expression; HEK-293 SNCA-luciferase knock-in, luminescence, 24 h; actives 0.17% (n = 140,000); Potency, µM (titrated, usually from 57.2 µM), for inactives: at the top dose activity change, negative = inhibition, hits mostly inhibitors;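 further: potency means the concentration at half of the fitted maximal effect; plate controls were DMSO cells for no effect and cell-free wells for full effect; nearly all actives have a fitted effect of over 45% in size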
Luciferase inh: Photinus pyralis luciferase inhibition; P08659; purified P. pyralis luciferase, luminescence, biochemical; Potency, µM (series often up to 115 µM), for inactives: top-dose activity change, negative = inhibition, actives largely listed as inhibitors; actives 2.5% (n = 76,000); further: potency means the concentration at half of the fitted maximal effect; nearly all actives have a fitted effect of over 65% in size
Target sequence (P08659 whole entry, looked up): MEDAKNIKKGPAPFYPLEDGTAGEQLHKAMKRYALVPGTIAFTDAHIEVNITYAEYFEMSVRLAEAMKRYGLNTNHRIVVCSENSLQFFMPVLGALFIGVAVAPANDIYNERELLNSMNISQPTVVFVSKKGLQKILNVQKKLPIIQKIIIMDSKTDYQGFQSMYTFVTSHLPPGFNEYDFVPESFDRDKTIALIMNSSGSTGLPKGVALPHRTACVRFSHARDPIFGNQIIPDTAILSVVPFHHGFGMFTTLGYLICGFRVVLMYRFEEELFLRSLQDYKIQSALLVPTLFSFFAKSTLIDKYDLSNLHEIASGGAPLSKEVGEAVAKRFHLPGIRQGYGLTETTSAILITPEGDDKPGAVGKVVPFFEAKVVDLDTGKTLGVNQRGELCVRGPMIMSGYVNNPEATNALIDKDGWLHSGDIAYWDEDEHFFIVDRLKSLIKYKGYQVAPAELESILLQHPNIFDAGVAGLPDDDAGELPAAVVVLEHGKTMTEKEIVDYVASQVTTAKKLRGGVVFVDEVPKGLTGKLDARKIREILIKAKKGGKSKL
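Luminescence read by CCD imaging after purified firefly luciferase (10nM final) was added to substrate buffer holding 10uM D-luciferin and 10uM ATP, pH 7.5, pre-dosed with compound.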
GPT2 inh: GPT2 alanine aminotransferase inhibition | actives 0.25% (n = 100,000) | Q8TD30 | Potency, µM (top dose mostly 57.7 µM), inactives show top-dose activity change, negative = inhibition, actives largely listed as inhibitors | Recombinant GPT2, coupled pyruvate oxidase/HRP Amplex Red fluorescence; further: potency means the concentration at half of the fitted maximal effect; nearly all actives have a fitted effect of over 60% in size; many of its hits are not listed in these tables
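Fluorescence read-out: pyruvate from GPT2 turnover coupled to pyruvate oxidase, HRP and Amplex Red (0.2mM ThPP, 0.2U/mL PO and HRP, 50uM Amplex final). Substrates 250uM a-KG, 2mM L-alanine; enzyme 10ng/uL; 30 min RT.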
IP6K1 inh: blocks human inositol hexakisphosphate kinase 1; Q92551; IP6K1 kinase, ADP-Glo luminescence, 2 h; active compounds read low; activity change, % (series mostly up to about 58 µM); actives 0.81% (n = 140,000); AID 1645851; in the data active means activity change below about -25%
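ADP-Glo luminescence measures ADP made by human IP6K1 during a 2 h RT reaction with ATP/IP6 (mix at 1.3 mM/130 uM); top library doses 57.5 and 19.1 uM final.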
Numbers without * were called inactive; i = inactive; ? = inconclusive; . = no result given; & = joins results of further samples; [ ] = dose if it differs, or a comment. Unless noted, the call rests on the fitted dose curve; in most records, active means well fitted curve in the direction sought with a large enough effect; inconclusive means small, poorly fitted or top-dose-only effect, or another doubt; inactive means no such curve, though single readings can be large; an effect the other way counts as inactive or inconclusive. Unless noted, on the % scale 0 is the no-effect control and ±100 the full control effect. A portion of the library, so the mix of outcomes need not match the whole.

#1 CCS(=O)(=O)N1CC(CC#N)(n2cc(-c3ncnc4[nH]ccc34)cn2)C1
#2 CNC(=O)c1ccccc1Sc1ccc2c(C=Cc3ccccn3)n[nH]c2c1
#3 c1ccc(-c2cnc([C@@H]3COCCN3Cc3cnc[nH]3)[nH]2)cc1
#4 O=C(NCCCn1ccnc1)c1ccc(-c2ncc3cnc(-c4ccccc4)cn23)cc1
#5 O=C(c1ccc(-c2ncc3cnc(-c4ccccc4)cn23)cc1)N1CCc2cccnc21
#6 CCN1CCN(Cc2ccc(NC(=O)Nc3ccc(Oc4cc(NC)ncn4)cc3)cc2C(F)(F)F)CC1

Compound,1,2,3,4,5,6
SNCA expr inhib,68%[activator],-19%,26%[87.6 µM],12%[87.6 µM],?,.
Luciferase inh,.,.,-9%[172 µM],-19%[172 µM],-10%[172 µM],.
GPT2 inh,-10%,i,i,-3%[88.5 µM],-5%[88.5 µM],i
IP6K1 inh,-4,.,5,-3,-4,-4

The final 4 entries of the section before come first, to join the parts.
#3 c1ccc(-c2cnc([C@@H]3COCCN3Cc3cnc[nH]3)[nH]2)cc1
#4 O=C(NCCCn1ccnc1)c1ccc(-c2ncc3cnc(-c4ccccc4)cn23)cc1
#5 O=C(c1ccc(-c2ncc3cnc(-c4ccccc4)cn23)cc1)N1CCc2cccnc21
#6 CCN1CCN(Cc2ccc(NC(=O)Nc3ccc(Oc4cc(NC)ncn4)cc3)cc2C(F)(F)F)CC1
#7 CC(C)OC(=O)C(C)(C)Oc1ccc(C(=O)c2ccc(Cl)cc2)cc1
#8 CN1Cc2c(N)cccc2C(c2ccccc2)C1 (stereo not given)
#9 COc1ccccc1-c1cnc2n[nH]c(-c3ccccc3C)c2n1
#10 CN1C[C@H]2c3ccccc3Oc3ccc(Cl)cc3[C@@H]2C1
#11 O=C(c1ccccc1)c1ccccc1

Compound,3,4,5,6,7,8,9,10,11
SNCA expr inhib,26%[87.6 µM],12%[87.6 µM],?,.,?,9%,43%[activator][87.6 µM],-56%[25.6 µM],-26%[25.6 µM]
Luciferase inh,-9%[172 µM],-19%[172 µM],-10%[172 µM],.,.,.,?,.,.
GPT2 inh,i,-3%[88.5 µM],-5%[88.5 µM],i,3%&-2%,?,2%[88.5 µM],2%&-12%,i
IP6K1 inh,5,-3,-4,-4,-10,-19,-4,8,1

Some of the entries so far, as labelled records:
7: CC(C)OC(=O)C(C)(C)Oc1ccc(C(=O)c2ccc(Cl)cc2)cc1
  SNCA expr inhib: ?; Luciferase inh: .; GPT2 inh: 3%&-2%; IP6K1 inh: -10
8: CN1Cc2c(N)cccc2C(c2ccccc2)C1 (stereo not given)
  SNCA expr inhib: 9%; Luciferase inh: .; GPT2 inh: ?; IP6K1 inh: -19
9: COc1ccccc1-c1cnc2n[nH]c(-c3ccccc3C)c2n1
  SNCA expr inhib: 43%[activator][87.6 µM]; Luciferase inh: ?; GPT2 inh: 2%[88.5 µM]; IP6K1 inh: -4
